From PubChem
rRNA inh HTS: selective bacterial rRNA inhibition in E. coli; E. coli WT GFP vs humanized-ribosome RFP mutants, fluorescence, 24 h; stronger effect = lower value; DMSO median 0, no signal -100; GFP signal change (wild-type ribosome), % (test concentration not listed); actives 1.6% (n = 350,000);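 active = significant combined selectivity score with lowered wild-type GFP, culture density cut under 30%, mutant RFP and density less affected; inactive = any of these conditions unmet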; also: one replicate is shown; some compounds called inactive have numbers as strong as hits
MLL AF4-AF9 inh: MLL-AF4/AF9 protein interaction inhibition | inhibition, % at 10 µM | actives 0.47% (n = 350,000) | AlphaScreen, biotin-AF4 peptide binding to FLAG-AF9;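 active = every replicate reaching a set inhibition limit, whatever the replicate mean, cut at about 25% in these data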;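 also: 0% = plate neutral control median and 100% = total signal loss; the record names both 10 and 1 µM as test concentration; the first replicate is given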
Target sequence (P42568 whole entry, looked up): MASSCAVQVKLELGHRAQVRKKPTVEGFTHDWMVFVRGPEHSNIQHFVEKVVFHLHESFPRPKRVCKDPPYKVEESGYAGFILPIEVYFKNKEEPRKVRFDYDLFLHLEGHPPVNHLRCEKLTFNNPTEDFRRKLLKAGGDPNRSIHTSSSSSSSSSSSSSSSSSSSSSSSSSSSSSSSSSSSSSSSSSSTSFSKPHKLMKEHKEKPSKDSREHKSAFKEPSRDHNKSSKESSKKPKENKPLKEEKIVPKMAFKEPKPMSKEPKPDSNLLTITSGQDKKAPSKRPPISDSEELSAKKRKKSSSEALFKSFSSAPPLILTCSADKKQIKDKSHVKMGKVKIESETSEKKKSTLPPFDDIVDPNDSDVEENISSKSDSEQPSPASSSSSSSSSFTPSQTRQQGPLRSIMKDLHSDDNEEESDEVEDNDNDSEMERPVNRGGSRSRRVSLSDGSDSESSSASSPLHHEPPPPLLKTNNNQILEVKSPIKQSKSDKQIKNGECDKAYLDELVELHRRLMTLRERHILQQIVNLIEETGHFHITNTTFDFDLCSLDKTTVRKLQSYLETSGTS
rRNA inh HTS OD600: second read-out of rRNA inh HTS, no call of its own (marks repeat the call); OD600 change, %; measured here: OD600 growth;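 optical density of the mix in the first replicate; 0 = DMSO median and -100 = no signal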
rRNA inh HTS RFP: recorded beside rRNA inh HTS, whose call it bears; RFP signal change, %; measured here: RFP humanized mutant strains;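 first replicate; 0 = DMSO median and -100 = no signal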
Active calls of the source: *. These rows are one share of the data; the hit share may differ from the screen's.

COc1ccccc1-c1ccc2c(c1)O[C@@H](CN(C)C(=O)c1cccnc1)[C@H](C)CN([C@H](C)CO)S2(=O)=O was read as rRNA inh HTS -2, MLL AF4-AF9 inh 1.3, rRNA inh HTS OD600 -2 and rRNA inh HTS RFP -2.9.
Screening NCCC1CN(C(=O)OCc2ccccc2)c2ccccc21 (configuration not stated) returned rRNA inh HTS -20, MLL AF4-AF9 inh 7.7, rRNA inh HTS OD600 -31 and rRNA inh HTS RFP -2.9.
Screening O=C(C[C@@H]1CC[C@@H]2[C@H](COC[C@H](O)CN2C(=O)c2ccccc2)O1)N1CCOCC1 returned rRNA inh HTS 2, MLL AF4-AF9 inh -1.7, rRNA inh HTS OD600 4 and rRNA inh HTS RFP -0.1.
For C[C@H]1CN([C@@H](C)CO)C(=O)c2cc(NC(=O)CCCCCC(=O)Nc3ccccc3N)ccc2O[C@@H]1CN(C)C the results were rRNA inh HTS 1, MLL AF4-AF9 inh 0.9, rRNA inh HTS OD600 3 and rRNA inh HTS RFP -0.7.
For COc1ccc2c3c(n(C)c2c1)[C@H](CO)N(S(C)(=O)=O)CC31CN(C(=O)Nc2cccc(F)c2)C1 the results were rRNA inh HTS -10, MLL AF4-AF9 inh 17, rRNA inh HTS OD600 -10 and rRNA inh HTS RFP -2.0.
COc1ccccc1CNC(=O)C[C@@H]1C[C@@H]2c3cc(NC(=O)C4CCOCC4)ccc3O[C@@H]2[C@H](CO)O1 was read as rRNA inh HTS 2, MLL AF4-AF9 inh -2.3, rRNA inh HTS OD600 2 and rRNA inh HTS RFP -2.7.
Screening CC(C)NC(=O)N[C@@H]1C=C[C@@H](CC(=O)NC2Cc3ccccc3C2)O[C@@H]1CO returned rRNA inh HTS -1, MLL AF4-AF9 inh -3.5, rRNA inh HTS OD600 1 and rRNA inh HTS RFP 1.6.
CC(C)N1CCC1(C)C(=O)Nc1nc2ccccc2[nH]1 (configuration not stated) was read as rRNA inh HTS 6, MLL AF4-AF9 inh -1.4, rRNA inh HTS OD600 9 and rRNA inh HTS RFP -3.4.
CCS(=O)(=O)Nc1ccc2c(c1)C(=O)N(C)[C@H]1CC[C@H](CC(=O)NCc3ccc(OC)cc3)O[C@H]1CO2 was read as rRNA inh HTS -1, MLL AF4-AF9 inh -1.3, rRNA inh HTS OD600 1 and rRNA inh HTS RFP 0.2.
`COc1ccc(S(=O)(=O)N2CCCCCC2)cc1C(=O)N1CCN(c2ccc(F)cc2)CC1` gave rRNA inh HTS -20, MLL AF4-AF9 inh 5.3, rRNA inh HTS OD600 -46 and rRNA inh HTS RFP 2.1.
Screening COc1ccccc1S(=O)(=O)N[C@H]1C=C[C@H](CC(=O)NCc2cccc(F)c2)O[C@@H]1CO returned rRNA inh HTS 1, MLL AF4-AF9 inh -2.6, rRNA inh HTS OD600 7 and rRNA inh HTS RFP 1.2.
`CN1C(=O)c2cc(NC(=O)c3ccc(F)c(F)c3)ccc2OC[C@H]2O[C@H](CC(=O)N3CCOCC3)CC[C@@H]21` gave rRNA inh HTS -1, MLL AF4-AF9 inh -2.0, rRNA inh HTS OD600 -5 and rRNA inh HTS RFP -4.0.
For CCCS(=O)(=O)NC(=O)C1(C)CCCN(C(=O)c2cccc3ccccc23)C1 (configuration not stated) the results were rRNA inh HTS 14, MLL AF4-AF9 inh -2.5, rRNA inh HTS OD600 31 and rRNA inh HTS RFP -0.4.
Screening CNC[C@@H]1Oc2c(NC(=O)c3ccc(-c4nccs4)cc3)cccc2C(=O)N([C@H](C)CO)C[C@@H]1C returned rRNA inh HTS 2, MLL AF4-AF9 inh -1.5, rRNA inh HTS OD600 -1 and rRNA inh HTS RFP 1.3.
For N#C[C@H]1[C@H](c2ccc(C3=CCCC3)cc2)[C@H](CO)N1C(=O)NC1CCCC1 the results were rRNA inh HTS 31, MLL AF4-AF9 inh -2.8, rRNA inh HTS OD600 -20 and rRNA inh HTS RFP 14.
Screening CN(C)C(=O)C[C@@H]1CC[C@@H]2[C@H](COC[C@@H](O)CN2S(=O)(=O)c2ccccc2)O1 returned rRNA inh HTS 4, MLL AF4-AF9 inh -4.0, rRNA inh HTS OD600 11 and rRNA inh HTS RFP -3.4.
C[C@H](CO)N1C[C@H](C)[C@H](CN(C)Cc2ccc(C(=O)O)cc2)Oc2ccc(NC(=O)Cn3cnnn3)cc2CC1=O was read as rRNA inh HTS 0, MLL AF4-AF9 inh -4.1, rRNA inh HTS OD600 6 and rRNA inh HTS RFP 1.1.
`CCCC(=O)Nc1ccc2c(c1)OC[C@@H](C)N(Cc1ccccc1F)C[C@@H](C)[C@H](OC)CN(C)C2=O` gave rRNA inh HTS -5, MLL AF4-AF9 inh 5.0, rRNA inh HTS OD600 -18 and rRNA inh HTS RFP 7.0.
`Cn1cnc(S(=O)(=O)N[C@@H]2CC[C@@H](CC(=O)NCC3CC3)O[C@H]2CO)c1` gave rRNA inh HTS 0, MLL AF4-AF9 inh -0.8, rRNA inh HTS OD600 1 and rRNA inh HTS RFP -0.2.
Screening Cn1c(NCCc2ccncc2)nc2cc(-c3ccsc3)sc2c1=O returned rRNA inh HTS -15, MLL AF4-AF9 inh -1.0, rRNA inh HTS OD600 -20 and rRNA inh HTS RFP -8.6.
Screening Cc1cc(C)n2c(Nc3c(C)cccc3C)c(-c3ccccn3)nc2n1 returned rRNA inh HTS 7, MLL AF4-AF9 inh 11, rRNA inh HTS OD600 4 and rRNA inh HTS RFP 11.
`CC(C)C[C@H]1CN([C@@H](Cc2ccccc2)CN2CCC[C@@H]2CN2C(=O)C(=O)NC[C@@H]2Cc2ccccc2)C(=O)C(=O)N1CCc1ccccc1` gave rRNA inh HTS -29, MLL AF4-AF9 inh 2.4, rRNA inh HTS OD600 -64 and rRNA inh HTS RFP 26.
C[C@@H]1CCCCO[C@@H](CN(C)C(=O)c2ccncc2)[C@H](C)CN([C@@H](C)CO)C(=O)c2cc(N(C)C)ccc2O1 was read as rRNA inh HTS 1, MLL AF4-AF9 inh -1.8, rRNA inh HTS OD600 8 and rRNA inh HTS RFP -1.4.
Screening Cc1cccc(S(=O)(=O)N2C[C@@H](O)COC[C@@H]3O[C@@H](CC(=O)NCc4ccc5c(c4)OCO5)CC[C@H]32)c1 returned rRNA inh HTS -3, MLL AF4-AF9 inh 5.7, rRNA inh HTS OD600 1 and rRNA inh HTS RFP 2.8.
For C[C@@H]1CCCCO[C@H](CN(C)Cc2ccc3c(c2)OCO3)[C@@H](C)CN([C@H](C)CO)C(=O)c2cc(NC(=O)Nc3ccc4c(c3)OCO4)ccc2O1 the results were rRNA inh HTS 5, MLL AF4-AF9 inh 4.3, rRNA inh HTS OD600 22 and rRNA inh HTS RFP 2.3.
Screening CCCNC(=O)Nc1ccc2c(c1)OC[C@@H](C)N(C(=O)C1CC1)C[C@H](C)[C@@H](OC)CN(C)C2=O returned rRNA inh HTS -2, MLL AF4-AF9 inh 1.5, rRNA inh HTS OD600 1 and rRNA inh HTS RFP 0.0.
Cc1ccc(CNC(=O)C2CCC(=O)N(Cc3cccc(F)c3)C2)s1 (configuration not stated) was read as rRNA inh HTS 10, MLL AF4-AF9 inh -0.2, rRNA inh HTS OD600 15 and rRNA inh HTS RFP -1.3.
For COc1ccc(S(=O)(=O)Nc2ccc3c(c2)C(=O)N([C@@H](C)CO)C[C@@H](C)[C@@H](CN(C)C)O3)cc1 the results were rRNA inh HTS 0, MLL AF4-AF9 inh -2.5, rRNA inh HTS OD600 9 and rRNA inh HTS RFP 0.3.
`COCCNC(=O)C[C@H]1CC[C@H]2[C@@H](COc3ccc(NC(=O)Nc4ccccc4)cc3C(=O)N2C)O1` gave rRNA inh HTS -3, MLL AF4-AF9 inh -0.6, rRNA inh HTS OD600 -2 and rRNA inh HTS RFP -3.5.
Screening CCNC(=O)C[C@@H]1C=C[C@@H](NS(=O)(=O)c2ccc(C)cc2)[C@H](CO)O1 returned rRNA inh HTS 0, MLL AF4-AF9 inh -1.0, rRNA inh HTS OD600 -1 and rRNA inh HTS RFP -1.2.
`C[C@@H]1CN([C@H](C)CO)C(=O)c2cc(Br)cnc2O[C@H]1CN(C)C(=O)c1ccccc1F` gave rRNA inh HTS -1, MLL AF4-AF9 inh -17, rRNA inh HTS OD600 5 and rRNA inh HTS RFP -1.0.
For COc1ccc(S(=O)(=O)Nc2ccc3c(c2)CC(=O)N([C@H](C)CO)C[C@@H](C)[C@H](CN(C)S(=O)(=O)c2ccc(OC)cc2)O3)cc1 the results were rRNA inh HTS -2, MLL AF4-AF9 inh 1.3, rRNA inh HTS OD600 7 and rRNA inh HTS RFP 1.8.
Screening C[C@H](NC(=O)C[C@H]1CC[C@@H]2[C@H](COC[C@H](O)CN2C(=O)Nc2cccc(F)c2)O1)c1ccccc1 returned rRNA inh HTS -13, MLL AF4-AF9 inh -0.5, rRNA inh HTS OD600 -16 and rRNA inh HTS RFP 0.6.
For COc1ccccc1S(=O)(=O)N[C@H]1CC[C@@H](CC(=O)NCc2cccc(F)c2)O[C@H]1CO the results were rRNA inh HTS 3, MLL AF4-AF9 inh 0.3, rRNA inh HTS OD600 0 and rRNA inh HTS RFP 0.2.
Screening COc1ccc(-c2ccc(C(=O)N3CCN(C)CC3)c3occc23)c(C)c1 returned rRNA inh HTS -5, MLL AF4-AF9 inh 4.9, rRNA inh HTS OD600 -9 and rRNA inh HTS RFP -1.1.
Screening COc1ccc2c3c(n(C)c2c1)[C@H](CO)N(C(=O)c1cccnc1)CC31CCN(S(=O)(=O)c2ccccc2)CC1 returned rRNA inh HTS -5, MLL AF4-AF9 inh -2.3, rRNA inh HTS OD600 -9 and rRNA inh HTS RFP 2.1.
CN1[C@H](C(=O)NC2Cc3ccccc3C2)[C@@H](CO)[C@@H]2Cn3c(ccc(-c4cccnc4)c3=O)[C@@H]21 was read as rRNA inh HTS -3, MLL AF4-AF9 inh -1.3, rRNA inh HTS OD600 0 and rRNA inh HTS RFP -1.5.
For C[C@H](CO)N1C[C@H](C)[C@H](CN(C)C(=O)Cc2ccncc2)Oc2ncc(C#CCN(C)C)cc2C1=O the results were rRNA inh HTS 5, MLL AF4-AF9 inh -2.7, rRNA inh HTS OD600 -3 and rRNA inh HTS RFP 2.1.
Screening COC(=O)[C@]12C[C@H](CC(=O)N3CCSCC3)C(=O)N(CCC3=CCCCC3)C1=C[C@H](COCc1ccccc1)O[C@@H]2C returned rRNA inh HTS 8, MLL AF4-AF9 inh -3.9, rRNA inh HTS OD600 3 and rRNA inh HTS RFP 2.6.
Screening N#C[C@H]1[C@@H](c2ccc(-c3cccc(F)c3)cc2)[C@H](CO)N1c1nc(-c2ccccc2)cs1 returned rRNA inh HTS 1, MLL AF4-AF9 inh 0.9, rRNA inh HTS OD600 9 and rRNA inh HTS RFP 2.7.
Screening CC1=N/C(=C\c2ccc([N+](=O)[O-])cc2)C(=O)N1c1ccc(C)c(Cl)c1 returned rRNA inh HTS -7, MLL AF4-AF9 inh 7.0, rRNA inh HTS OD600 4 and rRNA inh HTS RFP 1.4.
CN1C(=O)c2cc(NC(=O)Cc3cccs3)ccc2OC[C@@H]2O[C@H](CC(=O)N[C@H]3CCN(Cc4ccccc4)C3)CC[C@H]21 was read as rRNA inh HTS 3, MLL AF4-AF9 inh 2.8, rRNA inh HTS OD600 9 and rRNA inh HTS RFP -1.0.
Screening Cc1noc(C)c1S(=O)(=O)Nc1ccc2c(c1)C(=O)N([C@@H](C)CO)C[C@@H](C)[C@@H](CN(C)C(=O)Nc1ccccc1)OCCCC[C@H](C)O2 returned rRNA inh HTS -3, MLL AF4-AF9 inh 4.7, rRNA inh HTS OD600 2 and rRNA inh HTS RFP 0.3.
CC(C)(C)S(=O)N1Cc2cc(C(=O)N3CCc4ccccc4C3)nc(-c3cccc(-c4cccnc4)c3)c2[C@@H]1CCO (some centres not stated) was read as rRNA inh HTS 0, MLL AF4-AF9 inh 8.6, rRNA inh HTS OD600 6 and rRNA inh HTS RFP 0.6.
